Assay outcomes deposited in PubChem BioAssay by Johns Hopkins Ion Channel Center.
KCNQ2 enhance: potentiators of rat KCNQ2 potassium channel | CHO-K1 KCNQ2, FluxOR thallium flux fluorescence; active compounds read high | B-score at 10 µM | actives 0.54% (n = 310,000);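 active = fluorescence ratio B-score at least 3 SD of library B-scores, with initial fluorescence B-score within 3 SD, cut at about 5.3 in these data; same plate scores as AID 2156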;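 note: B-score of peak minus minimum over baseline fluorescence ratio after K+ and Tl+ stimulus; positive B-score means potentiation of KCNQ2 with more thallium influx and brighter signal; only the inactives scoring about 0 or higher are listed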
Target sequence (O88943 whole entry, looked up): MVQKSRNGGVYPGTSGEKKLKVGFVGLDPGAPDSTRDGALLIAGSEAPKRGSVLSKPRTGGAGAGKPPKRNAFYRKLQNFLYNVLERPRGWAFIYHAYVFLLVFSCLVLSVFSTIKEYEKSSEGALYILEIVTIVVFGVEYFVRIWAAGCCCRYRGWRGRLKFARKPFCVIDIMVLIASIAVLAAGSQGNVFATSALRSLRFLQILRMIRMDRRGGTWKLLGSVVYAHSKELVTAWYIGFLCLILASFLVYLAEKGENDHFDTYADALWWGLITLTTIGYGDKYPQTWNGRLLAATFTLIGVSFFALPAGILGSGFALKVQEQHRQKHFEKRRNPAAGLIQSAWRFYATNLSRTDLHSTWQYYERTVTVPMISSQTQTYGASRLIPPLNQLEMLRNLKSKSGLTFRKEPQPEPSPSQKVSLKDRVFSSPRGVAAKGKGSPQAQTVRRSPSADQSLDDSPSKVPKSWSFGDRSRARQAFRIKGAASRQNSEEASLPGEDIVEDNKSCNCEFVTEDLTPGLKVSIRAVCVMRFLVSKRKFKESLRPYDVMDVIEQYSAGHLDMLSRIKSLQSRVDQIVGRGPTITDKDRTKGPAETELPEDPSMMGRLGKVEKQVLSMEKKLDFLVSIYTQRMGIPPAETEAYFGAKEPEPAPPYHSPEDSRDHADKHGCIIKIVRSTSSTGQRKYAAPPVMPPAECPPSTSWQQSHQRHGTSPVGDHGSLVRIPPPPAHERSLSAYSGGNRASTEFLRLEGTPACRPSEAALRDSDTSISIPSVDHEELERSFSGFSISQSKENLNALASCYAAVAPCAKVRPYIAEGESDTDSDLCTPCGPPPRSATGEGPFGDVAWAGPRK
KCNQ2 enhance baseline: also measured in KCNQ2 enhance; calls as there; B-score; compound at 10 µM; measured here: initial fluorescence intensity artifact check;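 brightness before thallium and not channel activity; 0 = typical well and far values either way flag optical interference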
* = called active by the depositor. Some of the compounds tested. The share of hits here may be higher or lower than overall.

entry	canonical_smiles	KCNQ2 enhance	KCNQ2 enhance baseline
1	CCOc1ccccc1N1C(=O)CC(Nc2ccc(N3CCOCC3)cc2)C1=O (centres undefined)	0.77	-1.1
2	CCN(CC)S(=O)(=O)c1cccc(C(=O)OC2CC(C)OC2=O)c1 (centres undefined)	4.7	-0.28
3	S=c1nc(-c2cccc(Br)c2)[nH][nH]1	0.18	0.1
4	CC(=O)C1=C(C)NC(SCC(=O)c2ccc(Cl)cc2Cl)=C(C#N)C1c1ccco1 (centres undefined)	1.4	1.2
5	O=C(Nc1ccc2c(c1)COC2=O)c1ccc(Cl)c(Cl)c1	0.71	-0.79
6	C/C(=N\NC(=O)CSc1nnc(C)s1)c1ccc(Cl)cc1	2.1	-0.5
7	CCOC(=O)c1cccc(NC(=O)C2CCC(CNc3c(N4CCOCC4)c(=O)c3=O)CC2)c1 (centres undefined)	1.1	-0.33
8	O=S(=O)(c1ccc(F)cc1)N1CCC(c2nc3ccccc3[nH]2)CC1	2	0.7
9	CC(C)(Oc1ccc(Cl)cc1)C(=O)N1CCN(C(=O)c2ccco2)CC1	0.02	1.1
10	CC(C(=O)NCC1(c2ccccc2)CCCC1)N1CCOCC1 (centres undefined)	0.02	-1
11	O=C(CSc1nc2[nH]ncc2c(=O)[nH]1)N1CCCCC1	2.2	-0.09
12	O=C(CNCc1ccccn1)N1CCc2ccccc2C1	0.15	0.41
13	O=C(Nc1cccc(F)c1)C1CCN(C(=O)N2CCOc3ccccc32)CC1	1.6	0.02
14	CCOC(=O)C1=C(C)NC(C)=C(C(=O)OCC)C1c1ccc(OC)cc1	0.32	-2
15	CC1CCN(C(=O)CSc2ccc(-c3ccc(F)cc3)nn2)CC1	1.1	0.02
16	O=C1N(Cc2ccccc2)c2ccc(Cl)cc2C12OCCO2	0.01	-0.06
17	CC1=NNC(=O)C1CC(=O)N/N=C/c1ccc(C)o1 (centres undefined)	0.23	3.1
18	O=C(C1CCC1)N1CCc2cc(S(=O)(=O)NCc3cccnc3)ccc21	0.21	-0.07
19	CCN1CCN(c2cc(C)c3cc(NC(=O)Cc4ccc(OC)c(OC)c4)ccc3n2)CC1	1	0.34
20	Cc1ccc(S(=O)c2ccc(NC(=O)C3CC3)cc2C#N)cc1 (centres undefined)	2.2	0.01
21	CCC1(CC)NC(=O)N(CC(=O)OC(C)C(=O)Nc2ccc(Cl)cn2)C1=O (centres undefined)	0.41	-0.6
22	COc1ccc(S(=O)(=O)N(CC(=O)NCC2CCCO2)Cc2ccccc2)cc1 (centres undefined)	3.3	0.06
23	CC(=O)Nc1ccc(N2CCOCC2)c([N+](=O)[O-])c1	0.67	1
24	Nc1nc(COc2ccc(F)cc2)nc(N2CCCCC2)n1	1.7	0.6
25	COc1ccc2cc(CCNC(=O)c3cccs3)c(=O)[nH]c2c1	0.52	-0.85

Ordered by value in KCNQ2 enhance baseline (lowest first): 3 from the list above.
No. | SMILES | KCNQ2 enhance baseline
5 | O=C(Nc1ccc2c(c1)COC2=O)c1ccc(Cl)c(Cl)c1 | -0.79
2 | CCN(CC)S(=O)(=O)c1cccc(C(=O)OC2CC(C)OC2=O)c1 (centres undefined) | -0.28
3 | S=c1nc(-c2cccc(Br)c2)[nH][nH]1 | 0.1

Next compounds follow:
entry	canonical_smiles	KCNQ2 enhance	KCNQ2 enhance baseline
26	CC(=O)NC12CC3CC(C1)CC(C(=O)N1CCN(S(=O)(=O)c4cccc(F)c4)CC1)(C3)C2	0.55	-0.54
27	CCOC(=O)N1CCN(CC(=O)N2c3ccccc3CC2C)CC1 (centres undefined)	1.9	0.64
28	CCOc1ccc(CN2CCN(CC3=Cc4cccc(OC)c4OC3)CC2CCO)cc1 (centres undefined)	0.04	0.12
29	COC(=O)Cn1cnc2c(cnn2-c2ccccc2)c1=O	0.5	0.48
30	O=C(COC(=O)/C=C/c1cccc(Cl)c1)NCCc1ccccc1	0.43	0.19
31	CCOC(=O)c1oc2cccc(OC(C)=O)c2c1C	0.04	2.5
32	COc1ccccc1N1CCN(S(C)(=O)=O)CC1	0.02	-0.44
33	COc1ccc(S(=O)(=O)N2CCN(C(=O)c3ccco3)CC2)cc1OC	0.4	0.27
34	CC1(c2ccccc2)NC(=O)N(CC(=O)N2CCN(S(=O)(=O)c3cccc([N+](=O)[O-])c3)CC2)C1=O (centres undefined)	0.57	1.2
35	Cc1ccsc1/C=C(\CC(=O)O)c1nc2ccccc2o1	0.06	-0.12
36	Cc1ccc(C)c2[nH]c(=O)c(CCNC(=O)c3ccc(S(=O)(=O)N4CCOCC4)cc3)cc12	0.34	-2
37	CSc1ccc(Cl)c(C(=O)Nc2ccc(OCC(N)=O)cc2)c1	1.1	0.12
38	COc1ccccc1/C=C/C(=O)N1CCCC1	0.14	0.4
39	Cc1nnc(NC(=O)CCn2cnc3ccccc3c2=O)s1	0.43	-0.84
40	COc1ccc(/C=N/OC(=O)c2ccc(Cl)cc2)c(Cl)c1OC	0.04	-0.85
41	Nc1ccccc1Sc1c[nH]c2ccccc12	2	0.17
42	O=C(CC1Oc2ccc(Cl)cc2NC1=O)NC1CCCCCC1 (centres undefined)	2.2	-0.77
43	COC(=O)C1=CO[C@@H](OC2OC(CO)C(O)C(O)C2O)[C@@H]2C(CO)=CC[C@H]12 (some centres undefined)	0.69	0.04
44	Cc1ccc(NC(=O)C2CCN(C(=O)c3ccc(F)cc3)CC2)nc1	1.7	-0.44
45	CCCSc1cc(=O)n(-c2ccc(F)cc2)nc1C(=O)OCC	0.53	-1.9
46	C=CCNC(=O)c1ccc(OC2CCN(S(=O)(=O)N(C)C)CC2)cc1	0.93	1.2
47	COc1ccc(Nc2nc(OC)nc(N3CCOCC3)n2)cc1	0.58	-1.8
48	COc1ccc(NC(=O)c2cccnc2Cl)c(S(=O)(=O)N2CCOCC2)c1	0.01	-0.12
49	Cc1ccc(S(=O)(=O)N2CCN(C)CC2)cc1-c1nnc2c3ccccc3c(C)nn12	1.2	0.12
50	COc1ccc(/C(C)=N/NC(=O)CNC(=O)/C=C/c2ccccc2OC)cc1	0.08	-0.09

Grouped by structure, those above containing a furan ring, fused or not.
entry	canonical_smiles	KCNQ2 enhance	KCNQ2 enhance baseline
4	CC(=O)C1=C(C)NC(SCC(=O)c2ccc(Cl)cc2Cl)=C(C#N)C1c1ccco1 (centres undefined)	1.4	1.2
9	CC(C)(Oc1ccc(Cl)cc1)C(=O)N1CCN(C(=O)c2ccco2)CC1	0.02	1.1
17	CC1=NNC(=O)C1CC(=O)N/N=C/c1ccc(C)o1 (centres undefined)	0.23	3.1
31	CCOC(=O)c1oc2cccc(OC(C)=O)c2c1C	0.04	2.5
33	COc1ccc(S(=O)(=O)N2CCN(C(=O)c3ccco3)CC2)cc1OC	0.4	0.27

Further structures follow.
entry	canonical_smiles	KCNQ2 enhance	KCNQ2 enhance baseline
51	COc1ccc(CN2CCN(C(=O)CCC(=O)Nc3nnc(C(C)C)s3)CC2)cc1F	0.78	1.8
52	CCOC(=O)CCc1c(C)nc2cc(-c3ccc(Cl)cc3)[nH]n2c1=O	0.27	-1.9
53	O=C(Cn1cnc([N+](=O)[O-])n1)NCCO	2.2	-3.2
54	Cc1cc(C)nc(NNC(=O)c2ccccc2O)n1	1.6	-0.06
55	CCOC(=O)c1ccccc1NC(=O)c1c(F)c(F)c(F)c(F)c1F	1.1	-0.65
56	CCOC(=O)Cc1csc(NS(=O)(=O)c2ccc([N+](=O)[O-])cc2)n1	1	-2.5
57	CCN1CCN(Cc2oc(CO)cc(=O)c2O)CC1	1.9	1.5
58	CC(=O)Cc1nsc(NC(=O)c2ccccc2)n1	0.54	-0.44
59	Cc1cccc(C(C)n2nnc3ccccc32)c1O (centres undefined)	0.9	0.79
60	O=C(NC1CCCC1)C(c1ccccn1)N(C(=O)c1csnn1)c1ccccc1Br (centres undefined)	0.65	0.14
61	CCN(CC)CCC(c1ccc2c(c1)OCO2)c1c(O)cc(OC)cc1OC (centres undefined)	0.71	-0.13
62	Cc1cc(N/C=C(\C#N)S(=O)(=O)c2ccc(Cl)cc2)nc(C)n1	0.02	1.4
63	CCCCCOC(=O)c1[nH]c2c(c1C)C(=O)C(C(=O)OC)C(C)C2 (centres undefined)	0.36	0.51
64	COCCN1Cc2cccc(C(=O)NCc3cccs3)c2C1=O	0.09	0.34
65	NC(=O)CN(c1ccc([N+](=O)[O-])cc1)S(=O)(=O)c1ccccc1	0.23	0.82
66	O=C(Nc1c[nH]c(=O)[nH]c1=O)c1cccc([N+](=O)[O-])c1	0.03	-0.11
67	Cc1ccn2c(-c3csc(NCc4ccco4)n3)c(C)nc2c1	0.38	0.64
68	CC(C)N(Cc1nccn1C)C(=O)c1ccc(OC2CCN(C(=O)C3CC3)CC2)cc1	0.38	-1.6
69	CCCCNC(=O)c1onc(CSc2cccc(OCC)c2)c1C(=O)O	0.81	-0.14
70	COc1ccc(NC(=O)CN(C)C(=O)c2cc(C)on2)cc1	0.87	-0.36
71	O=C(NNCc1ccc(O)cc1)c1ccccc1Cl	0.75	-0.04
72	COc1cc(=O)[nH]c(SCC(=O)Nc2ccc3ccccc3c2)n1	2.5	-0.81
73	CN1/C(=C/C(=O)C2CC2)C(C)(C)c2ccccc21	0.91	0.31
74	COc1ccc(NC(=O)CN2CCC(NC(=O)C3CCCCC3)CC2)c([N+](=O)[O-])c1	0.03	-1
75	Cc1ccc(O)c(NC(=O)c2noc3c2CCCCC3)c1	1.3	1.4

From no. 57 to 58, as listed above:
entry	canonical_smiles	KCNQ2 enhance	KCNQ2 enhance baseline
57	CCN1CCN(Cc2oc(CO)cc(=O)c2O)CC1	1.9	1.5
58	CC(=O)Cc1nsc(NC(=O)c2ccccc2)n1	0.54	-0.44

(continued)
entry	canonical_smiles	KCNQ2 enhance	KCNQ2 enhance baseline
76	COc1ccc(S(=O)(=O)N2CCCC2C(=O)Nc2nnc(-c3cccnc3)s2)cc1 (centres undefined)	0.07	-0.05
77	NC(=S)NNC(=S)Nc1ccccc1	0.68	0.14
78	C=CCN(c1cccc(C(F)(F)F)c1)S(=O)(=O)c1cccc(C(=O)OCC(=O)NCCC)c1	6.6*	0.63*
79	C=CCn1c(SCC(=O)C23CC4CC(CC(C4)C2)C3)nc(O)cc1=O	0.27	0.14
80	CCC(CC)C(=O)NCCc1ccc(OC)cc1	0.02	-0.18
81	CN=C1c2ccccc2CN1c1cccc(C(=O)OC)c1	1.3	0.05
82	COc1ccc(-c2nc(CSCC(=O)N3CCN(C(=O)c4ccco4)CC3)c(C)o2)cc1OC	1.6	-1.9
83	CCOC(=O)C1CCN(C(=O)CCNC(=O)Cn2ccc3ccccc3c2=O)CC1	1.9	-1
84	NC(=O)c1cccnc1Nc1cccc(F)c1	0.44	-0.2
85	CCc1ccc(OCC2c3cc(OC)c(OC)cc3CCN2C(=S)NCCOC)cc1 (centres undefined)	0.09	0.66
86	CC(=O)Nc1nnc(CCS(=O)(=O)c2ccc(C)cc2)s1	0.62	-0.01
87	CCc1nnc(NC(=O)CCC(=O)N2CCN(Cc3cc(F)ccc3OC)CC2)s1	0.02	0.63
88	C/C(=N/NC(=O)c1ccco1)c1ccc(Br)s1	0.94	0.77
89	COc1ccc(/C(C)=N/Nc2ccccc2Cl)c(O)c1	0.33	0.03
90	CCc1ccc(N(CC(=O)Nc2sc3c(c2C(=O)OC)CCCC3)S(C)(=O)=O)cc1	1.2	-1.5
91	O=C(NCc1ccco1)C1CCCN1C(=O)Nc1ccc(Cl)cc1 (centres undefined)	1.7	-0.61
92	CCn1c(=O)n(CC)c2cc([N+](=O)[O-])ccc21	0.22	-1.5
93	Cc1c(C(=O)NCCCN2CCCC2=O)oc2ccccc12	0.72	0.81
94	COc1ccccc1NC(=O)N1CCN(C)CC1	1.7	2.9
95	O=C(Nc1cc(S(=O)(=O)N2CCCC2)ccc1OCC(F)(F)F)c1ccc(F)cc1	0.81	-1.1
96	Cc1cc(NCCCN2CCOCC2)n2ncc(-c3ccc(Cl)cc3)c2n1	1.6	-2.3
97	CSc1nc(-c2ccco2)nn1C(=O)c1ccco1	1.5	-0.94
98	COc1ccc(CCNC(=O)C(=O)Nc2ccc3c(c2)OCCO3)cc1OC	0.14	-0.91
99	CCOC(=O)N1CCC(NC(=O)COc2cc(=O)n(C)c3ccccc23)CC1	1	0.08
100	CCCC[C@@H]1CN=C(N)N1CC(C)(C)C	1.1	1.4

Remaining list, next part.
entry	canonical_smiles	KCNQ2 enhance	KCNQ2 enhance baseline
101	COC(=O)CNC(=O)c1cn(CC(C)C)c(=O)c2cc(OC)c(OC)cc12	0.3	-0.58
102	CS(=O)(=O)N1CCCC(C(=O)Nc2ccccc2C(F)(F)F)C1 (centres undefined)	0.27	-0.51
103	CSc1nc(C)cc(OCC(=O)N2CCOCC2)n1	0.05	0.79
104	O=C(CCN1CCCCCC1)Nc1ccc(F)c(F)c1	1	-0.56
105	CC(C)(C)C(=O)NC1(C(F)(F)F)NC(=O)N(CCc2ccccc2)C1=O (centres undefined)	1.3	-0.19
106	CC1CCCC(N2CCN(C(=O)c3ccc(F)cc3)CC2)C1 (centres undefined)	0.13	-1.5
107	COc1ccccc1N1C(=S)NC2CS(=O)(=O)CC21 (centres undefined)	0.06	1.7
108	Cc1ccc(S(=O)(=O)Nc2nnc(C3CCCCC3)s2)cc1	0.24	0.99
109	COc1cc(/C=C2/NC(=O)N(CC(=O)Nc3cccc(C)c3)C2=O)ccc1OCC(N)=O	0.7	-1.1
110	CC(=O)Nc1nc(COc2ccc3ccccc3c2)cs1	0.4	1.2
111	O=C(O)CSc1nnc(-c2ccncc2)n1-c1ccc(Cl)cc1	0.87	-0.43
112	COc1ccccc1-c1c(NC(=O)c2ccco2)n(-c2ccccc2)nc(C)c1=O	0.91	1.9
113	C=CCN1C(=O)C(Cc2ccc(OCC)cc2)SC1=Nc1ccc(C(=O)O)cc1 (centres undefined)	0.62	-0.12
114	O=C(Nc1ccc(N=Nc2ccccc2)cc1)c1ccc(Cl)cc1Cl	1.1	0.05
115	CC(C)N1CCN(Cc2cccc(-c3ccco3)c2)CC1CCO (centres undefined)	0.15	1.8
116	Cc1cccc(-n2c(SCC(N)=O)nnc2-c2ccco2)c1	1.5	-1.4
